Compound activity: PubChem, ICCB-Longwood Screening Facility, Harvard Medical School
fixLJ activator: increases Burkholderia fixLJ two-component signaling; B. multivorans fixK-promoter GFP reporter, 18 h; active compounds read high; z-score (concentration not given with the values); hit rate 0.3% among 29,000;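 active = replicate mean overnight rise in green fluorescent reporter signal, 3 or more SD over negative controls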;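 also: score is relative to vehicle wells of the plate; 300 nL library stock went into each well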
* marks the source's active call; other numbers are inactive results; & = joins results of further samples. This is a subset; count on the stated rates, not on these rows.

1	COc1ccc(Cn2c(SCc3ccc(C(=O)NC4CCCC4)cc3)nc3ccncc32)cc1
  fixLJ activator = -7.37

2	CN(C)CCCC1(c2ccc(F)cc2)OCc2cc(C#N)ccc21 (centres undefined)
  fixLJ activator = -0.77&-0.97

3	CCCCn1cnc2cc(NCc3ccccc3Cl)ccc21
  fixLJ activator = -1.22

4	CCOC(N)=O
  fixLJ activator = -1.24

5	O=C(CSc1nc2ccccc2n1Cc1cccc(Cl)c1)N1CCN(c2ccc(F)cc2)CC1
  fixLJ activator = 1.59

6	COc1ccc(-c2cc(=S)ss2)cc1
  fixLJ activator = -0.72

7	Oc1ccc(C2CNCCc3c2cc(O)c(O)c3Cl)cc1 (centres undefined)
  fixLJ activator = -0.94

8	C1COC(NC(C2CC2)C2CC2)=N1
  fixLJ activator = -1.04

9	Cc1ccc(N(CC2=NCCN2)c2cccc(O)c2)cc1
  fixLJ activator = -1.23&0.17

10	CNCCCN1c2ccccc2CCc2ccccc21
  fixLJ activator = -0.74

11	Cc1nc2c(-c3ccccc3)c(C)[nH]n2c(=O)c1Cc1ccc(Br)cc1
  fixLJ activator = -0.66

12	O=C(CCCCCn1c(=O)c2sccc2n(CC(=O)Nc2cccc(Cl)c2)c1=O)NCc1ccc2c(c1)OCO2
  fixLJ activator = 1.88

13	Cc1cccc(N2CCN(C(=O)CCC(=O)NNc3nc4ccccc4c4nc(C)nn34)CC2C)c1 (centres undefined)
  fixLJ activator = -0.79

14	CCc1ccc(CCOc2ccc(CC3SC(=O)NC3=O)cc2)nc1 (centres undefined)
  fixLJ activator = -1.21&-1.82

15	CC12CC3CC(C)(C1)CC(N)(C3)C2
  fixLJ activator = -1.78

Overlap with the part before: 2 compounds, then new ones.
14	CCc1ccc(CCOc2ccc(CC3SC(=O)NC3=O)cc2)nc1 (centres undefined)
  fixLJ activator = -1.21&-1.82

15	CC12CC3CC(C)(C1)CC(N)(C3)C2
  fixLJ activator = -1.78

16	CC(=O)CCCCn1c(=O)c2c(ncn2C)n(C)c1=O
  fixLJ activator = -1.54&-0.52

17	NC1CCN(c2nc3c(cc2F)c(=O)c(C(=O)O)cn3-c2ccc(F)cc2F)C1 (centres undefined)
  fixLJ activator = -5.27

18	O=C(O)c1cccnc1Nc1cccc(C(F)(F)F)c1
  fixLJ activator = -2.16

19	NC(N)=O
  fixLJ activator = -2.31

20	CCOC(=O)[C@H](CCc1ccccc1)N[C@@H](C)C(=O)N1Cc2ccccc2C[C@H]1C(=O)O
  fixLJ activator = -1.31&0.21

21	C/C=C/C(=O)N(CC)c1ccccc1C
  fixLJ activator = 0.46&-0.03

22	O=C(O)CCC(=O)c1ccc(-c2ccccc2)cc1
  fixLJ activator = -1.65&-1.02

23	CC[C@H](NC(C)C)[C@H](O)c1ccc(O)c2[nH]c(=O)ccc12
  fixLJ activator = -0.68

24	CCCCNc1ccc(C(=O)OCCN(C)C)cc1
  fixLJ activator = -0.58

25	CCN(CC)CCOC(=O)c1ccc(N)cc1
  fixLJ activator = -2.87

26	CC1(C)O[C@@H]2CC3C4C[C@H](F)C5=CC(=O)C=C[C@]5(C)[C@@]4(F)[C@@H](O)C[C@]3(C)[C@]2(C(=O)CO)O1 (some centres undefined)
  fixLJ activator = 0.59

27	COc1ccc(C2CNC(=O)C2)cc1OC1CCCC1 (centres undefined)
  fixLJ activator = -1.04

28	COCCn1c(SCC(=O)Nc2ccc(F)c(Cl)c2)nc2c(oc3ccccc32)c1=O
  fixLJ activator = -1.17

29	COc1cc(C(c2c(C)[nH][nH]c2=O)c2c(C)[nH][nH]c2=O)ccc1OC(=O)c1cccc(C)c1
  fixLJ activator = -1.14

30	CC1Cc2ccccc2N1NC(=O)c1ccc(Cl)c(S(N)(=O)=O)c1 (centres undefined)
  fixLJ activator = -1.58&-1.15

31	N#Cc1ccc(C(c2ccc(C#N)cc2)n2cncn2)cc1
  fixLJ activator = -0.79

32	CN1CCCN=C1COC(=O)C(O)(c1ccccc1)C1CCCCC1 (centres undefined)
  fixLJ activator = -1.05

33	CC[C@@H]1C(=O)OC[C@@H]1Cc1cncn1C
  fixLJ activator = -1.32

An excerpt of these results, bar-delimited:
nr | smiles | fixLJ activator
22 | O=C(O)CCC(=O)c1ccc(-c2ccccc2)cc1 | -1.65&-1.02
23 | CC[C@H](NC(C)C)[C@H](O)c1ccc(O)c2[nH]c(=O)ccc12 | -0.68
24 | CCCCNc1ccc(C(=O)OCCN(C)C)cc1 | -0.58

Of the compounds above, 4 contain an aryl methoxy group:
1	COc1ccc(Cn2c(SCc3ccc(C(=O)NC4CCCC4)cc3)nc3ccncc32)cc1
  fixLJ activator = -7.37

6	COc1ccc(-c2cc(=S)ss2)cc1
  fixLJ activator = -0.72

27	COc1ccc(C2CNC(=O)C2)cc1OC1CCCC1 (centres undefined)
  fixLJ activator = -1.04

29	COc1cc(C(c2c(C)[nH][nH]c2=O)c2c(C)[nH][nH]c2=O)ccc1OC(=O)c1cccc(C)c1
  fixLJ activator = -1.14
